# A1 inhib – A1 inhibition. caspase activation, % (concentration not given with the values). MEF A1-2A-BIM cells, caspase-Glo luminescence, 3 h; percent of clofoctol signal, DMSO as zero. AID 2241. hit rate 0.51% among 21,000;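 active means most replicate scores above 10, or exactly half above 10 with mean activity above 10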;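 further: effector caspase 3 and 7 activity cleaving a DEVD luciferin substrate; 50 nL library stock added to about 30 µL; numbers are from one replicate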
# BJeLR viab HTS – BJeLR cell viability reduction; hit rate 0.64% among 30,000; BJeLR fibroblasts viability, CellTiterGlo ATP luminescence, 48 h; HRASV12, hTERT and SV40 LT/ST transformed; viability loss activity score, % (no concentration beside the values); AID 2275; in the data active means viability loss activity score above about 50%; about a fifth of its hits are not listed in these tables;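 further: higher score means fewer live cells and less ATP luminescence; stock transfer was 50 or 100 nL into about 30 µL; 0% = vehicle wells and 100% = a reference killing control; one replicate is shown; the record names a cut of 85%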
# The depositor's hits bear a star; x = not tested or not shown. Some of the compounds tested; the hit share may differ from the screen's.
SMILES,A1 inhib,BJeLR viab HTS
C[C@@H]1CN([C@@H](C)CO)C(=O)c2cc(NC(=O)CCN3CCOCC3)ccc2O[C@H]1CN(C)C(=O)Nc1cccc2ccccc12,0.0,-1.8
COc1ccc(S(=O)(=O)N(C)C[C@H]2Oc3ccc(NS(=O)(=O)c4c(C)noc4C)cc3C(=O)N([C@H](C)CO)C[C@H]2C)cc1,-0.3,8.3
COc1ccc(NC(=O)Nc2ccc3c(c2)C(=O)N([C@@H](C)CO)C[C@H](C)[C@H](CN(C)Cc2ccc(Oc4ccccc4)cc2)O3)cc1,1.0,3.3
COc1ccc(NC(=O)N(C)C[C@@H]2Oc3ccc(NC(=O)Nc4ccccc4)cc3C(=O)N([C@@H](C)CO)C[C@@H]2C)cc1,-0.2,-1.5
CCOc1ccc(C(NC(=O)c2ccco2)NC(=O)c2ccco2)cc1OC,1.1,-6.9
CN(C(=O)c1ccc2c(Cl)c3c(nc2c1)CCC3)c1ccccc1Cl,-0.9,1.4
O=C(c1ccccc1)N(c1ccc2oc(=O)sc2c1)S(=O)(=O)c1ccccc1,x,-2.2
C[C@H](CO)N1C[C@H](C)[C@H](CN(C)C(=O)Nc2ccccc2)Oc2ccc(NC(=O)CCCCCC(=O)Nc3ccccc3N)cc2C1=O,x,3.4
C[C@H](CO)N1C[C@H](C)[C@@H](CN(C)Cc2ccc(-c3ccccc3)cc2)Oc2c(NC(=O)c3cnccn3)cccc2C1=O,x,-7.3
CNC(=O)[C@H]1O[C@@H](n2cnc3c(NCc4cccc(I)c4)ncnc32)C(O)[C@H]1O (some centres undefined),-0.6,-1.7
O=C(c1cc2c(=O)oc3ccccc3c2s1)N1CCN(c2cccc(C(F)(F)F)c2)CC1,x,-4.0
C=CCSc1nnc(-c2ccc(C)cc2)o1,-4.3,-3.8
CCN(CC)S(=O)(=O)c1ccc(NC2c3ccccc3C(=O)N2Cc2ccccc2)cc1 (centres undefined),x,-4.6
C[C@@H]1CN([C@H](C)CO)C(=O)c2cccc(NC(=O)C3CC3)c2O[C@@H]1CN(C)S(=O)(=O)c1ccccc1,x,2.9
CSc1sc(C(=O)Nc2cccc(Cl)c2)c(-c2cccs2)c1C#N,-0.8,6.3

# Continued, starting with the last three of the part before.
SMILES,A1 inhib,BJeLR viab HTS
CCN(CC)S(=O)(=O)c1ccc(NC2c3ccccc3C(=O)N2Cc2ccccc2)cc1 (centres undefined),x,-4.6
C[C@@H]1CN([C@H](C)CO)C(=O)c2cccc(NC(=O)C3CC3)c2O[C@@H]1CN(C)S(=O)(=O)c1ccccc1,x,2.9
CSc1sc(C(=O)Nc2cccc(Cl)c2)c(-c2cccs2)c1C#N,-0.8,6.3
CNC(=O)C1OC(C)(C(C)(C)C)OC1C(=O)NC (centres undefined),0.0,0.3
C[C@@H]1CN([C@H](C)CO)C(=O)c2cc(NC(=O)CCN3CCOCC3)ccc2O[C@H]1CN(C)C(=O)Nc1ccc(C(F)(F)F)cc1,-0.1,-1.0
C[C@H]1CN([C@@H](C)CO)C(=O)c2cc(NC(=O)C3CC3)ccc2O[C@H]1CN(C)CC1CC1,0.5,-4.4
N/C(=N/C(=S)Nc1ccccc1)N1CCOCC1,-0.1,-3.0
O=C(CCN1C(=O)C2C3C=CC(C3)C2C1=O)N1CCCCC1 (centres undefined),-0.4,2.4
CCOC(=O)c1ccc(SC)cc1OC,0.4,1.6
C[C@H]1CN([C@@H](C)CO)C(=O)c2cc(NC(=O)NC3CCCCC3)ccc2O[C@H]1CN(C)Cc1ccc(C(=O)O)cc1,0.3,2.7
CCc1ccc(C(=O)/C=C/Nc2ccc(C)cc2O)cc1,0.4,2.7
Cc1ccc(S(=O)(=O)N(C)C[C@H]2Oc3ccc(NC(=O)Nc4cccc5ccccc45)cc3C(=O)N([C@H](C)CO)C[C@@H]2C)cc1,0.2,-3.7
COc1ccc(NC(=O)N(C)C[C@@H]2Oc3ccc(NS(=O)(=O)c4ccccc4)cc3C(=O)N([C@H](C)CO)C[C@H]2C)cc1,0.0,-2.1
COc1ccc(S(=O)(=O)N(C)C[C@H]2Oc3ccc(NC(=O)c4ccncc4)cc3C(=O)N([C@@H](C)CO)C[C@@H]2C)cc1,-0.1,-2.9
CC1CCCCN1C(=O)c1ccccc1NS(=O)(=O)c1ccc2ccccc2c1 (centres undefined),0.0,7.5
C[C@H](CO)N1C[C@H](C)[C@H](CN(C)Cc2ccc3c(c2)OCO3)Oc2c(NC(=O)C3CCOCC3)cccc2C1=O,x,-5.1
C[C@H]1CN([C@@H](C)CO)C(=O)c2cccc(NC(=O)C3CCOCC3)c2O[C@H]1CN(C)Cc1ccc(-c2ccccc2)cc1,x,-1.8
COc1ccc(-c2cc(C(=O)N3CCN(C)CC3)no2)cc1,x,0.6

# In the list so far, these have a thiophene ring, fused or not.
SMILES,A1 inhib,BJeLR viab HTS
O=C(c1cc2c(=O)oc3ccccc3c2s1)N1CCN(c2cccc(C(F)(F)F)c2)CC1,x,-4.0
CSc1sc(C(=O)Nc2cccc(Cl)c2)c(-c2cccs2)c1C#N,-0.8,6.3

# Later entries:
SMILES,A1 inhib,BJeLR viab HTS
C[C@H]1CN([C@@H](C)CO)C(=O)c2cccc(NC(=O)c3nc4ccccc4s3)c2O[C@H]1CN(C)S(=O)(=O)c1ccc(Cl)cc1,x,1.4
CCOC(=O)C1CCC(CNCc2ccccc2C)CC1 (centres undefined),0.3,-6.6
C[C@@H]1CN([C@@H](C)CO)C(=O)c2cc(NS(C)(=O)=O)ccc2O[C@H]1CN(C)S(=O)(=O)c1cccs1,-0.1,-3.3
O=c1c(O)cccc2cc(O)c(O)c(O)c12,-0.5,-0.2
NC(=O)C1=CN(Cc2ccccc2)CCC1C(F)(F)F (centres undefined),1.2,4.0
C[C@H]1CN([C@@H](C)CO)C(=O)c2cc(NC(=O)NC3CCCCC3)ccc2O[C@H]1CN(C)Cc1ccc(Oc2ccccc2)cc1,-0.2,-6.3
CCCC[C@@H](C)/C=C(C)/C=C(\C)C(=O)NC1=C[C@@](O)(/C=C/C=C/C=C/C(=O)NC2C(=O)CCC2=O)[C@@H]2O[C@@H]2C1=O,1.4,-3.0
C[C@@H]1CN([C@@H](C)CO)C(=O)c2cc(NC(=O)CCC(F)(F)F)ccc2O[C@@H]1CN(C)C(=O)Nc1ccc2c(c1)OCO2,0.4,1.6
Cc1ccc(S(=O)(=O)N(C)C[C@@H]2Oc3ccc(NS(=O)(=O)c4ccc(Cl)cc4)cc3C(=O)N([C@H](C)CO)C[C@@H]2C)cc1,-1.1,3.4
CCC(=O)Oc1ccc(/C=C/c2ccccc2)cc1OC,-4.5,-3.1
O=C(O)C1=CCCN(CCON=C(c2ccccc2)c2ccccc2)C1,0.6,1.3
C[C@@H]1CN([C@@H](C)CO)C(=O)c2cc(NC(=O)Nc3ccc4c(c3)OCO4)ccc2O[C@@H]1CN(C)S(=O)(=O)c1ccc(F)cc1,0.4,-5.8
CC(C)n1c(SCC(=O)O)nc2cc(Cl)ccc21,-0.1,2.1
CCC1CCCCN1C(=O)CN1C(=O)c2ccccc2C1=O (centres undefined),0.4,-1.5
C[C@@H]1CN([C@@H](C)CO)C(=O)c2cc(NS(=O)(=O)c3ccccc3)ccc2O[C@H]1CN(C)C(=O)Nc1ccc(F)cc1,0.1,-5.9
CNC[C@@H]1Oc2c(NC(=O)c3cc(C)nn3C)cccc2C(=O)N([C@@H](C)CO)C[C@H]1C,x,-1.3
COc1cc(/C=C2\Oc3cc(O)ccc3C2=O)ccc1O,-2.6,-2.9
Cc1ccc(S(=O)(=O)Nc2cccc3c2O[C@@H](CN(C)Cc2ccc(Oc4ccccc4)cc2)[C@@H](C)CN([C@H](C)CO)C3=O)cc1,x,0.3
Cc1noc(C)c1NC(=O)N(C)C[C@@H]1Oc2ccc(NC(=O)CCCCCC(=O)Nc3ccccc3N)cc2C(=O)N([C@@H](C)CO)C[C@H]1C,x,-4.7
CNC[C@@H]1Oc2ccc(N(C)C)cc2C(=O)N([C@@H](C)CO)C[C@@H]1C,1.0,2.8
CNC[C@@H]1Oc2c(NS(=O)(=O)c3ccc(F)cc3)cccc2C(=O)N([C@H](C)CO)C[C@@H]1C,x,0.7
CC(Sc1nc2ccc(Br)cc2[nH]1)C(=O)O (centres undefined),-1.1,-1.2
Cc1noc(C)c1NC(=O)N(C)C[C@H]1Oc2c(NC(=O)Nc3ccc4c(c3)OCO4)cccc2C(=O)N([C@@H](C)CO)C[C@H]1C,x,-1.2
COc1cc(NC(=O)c2ccc3c(-n4ccnc4)c4c(nc3c2)CCCC4)cc(OC)c1OC,x,2.8
COC(=O)c1ccc2ccccc2n1,-5.6,2.8
COC(=O)C[C@@H]1C(C(=O)O)=CO[C@@H](O[C@@H]2O[C@H](CO)[C@@H](O)[C@H](O)[C@H]2O)/C1=C\COC(=O)/C=C/c1ccccc1,0.0,-0.9
C[C@H]1CN([C@@H](C)CO)C(=O)c2cccc(NC(=O)C3CC3)c2O[C@@H]1CN(C)S(=O)(=O)c1cn(C)cn1,x,-10
O=C(CSc1nc2ccccc2s1)OCN1C(=O)c2ccccc2C1=O,-1.3,-4.0
C[C@H]1CN([C@@H](C)CO)C(=O)c2cc(NS(=O)(=O)c3cn(C)cn3)ccc2O[C@@H]1CN(C)S(C)(=O)=O,0.0,-1.0
NC(=O)c1nnn(Cc2ccccc2)c1N,0.2,1.5

# A second format for three compounds above:
O=C(CCN1C(=O)C2C3C=CC(C3)C2C1=O)N1CCCCC1 (centres undefined)
  A1 inhib: -0.4 | BJeLR viab HTS: 2.4

CCOC(=O)c1ccc(SC)cc1OC
  A1 inhib: 0.4 | BJeLR viab HTS: 1.6

C[C@H]1CN([C@@H](C)CO)C(=O)c2cc(NC(=O)NC3CCCCC3)ccc2O[C@H]1CN(C)Cc1ccc(C(=O)O)cc1
  A1 inhib: 0.3 | BJeLR viab HTS: 2.7

# Later entries.
SMILES,A1 inhib,BJeLR viab HTS
O=C(Cn1nc2n(c1=O)-c1ccccc1SC2)NC(=O)Nc1ccccc1,-0.5,-3.9
C[C@@H]1CN([C@H](C)CO)C(=O)c2cc(NS(=O)(=O)c3cccs3)ccc2O[C@@H]1CN(C)C,0.1,-0.4
Cc1noc(C)c1NC(=O)N(C)C[C@@H]1Oc2ccc(NS(=O)(=O)c3cccs3)cc2C(=O)N([C@H](C)CO)C[C@@H]1C,0.0,0.2
C[C@@H]1CN([C@H](C)CO)C(=O)c2cccc(NS(=O)(=O)c3ccc(Cl)cc3)c2O[C@H]1CN(C)Cc1ccc(C(F)(F)F)cc1,x,3.6
CCOC(=O)c1cc(C)nn1C(=O)c1c(F)cccc1Cl,1.3,0.2
Cn1c(-c2ccc(Cl)cc2)cs/c1=N\C(=S)NCCc1ccccc1,-0.5,2.9
CCCNC(=O)c1ccc(NC(C)=O)cc1,0.9,-10
C[C@H](CO)N1C[C@H](C)[C@@H](CN(C)C(=O)Nc2ccc3c(c2)OCO3)Oc2c(NC(=O)C3CCCCC3)cccc2C1=O,x,-2.3
Cc1noc(C)c1NC(=O)Nc1cccc2c1O[C@H](CN(C)Cc1ccc(-c3ccccc3)cc1)[C@@H](C)CN([C@@H](C)CO)C2=O,x,-5.5
N#CCc1ccc(NC(=O)Nc2ccccc2)cc1,x,-11
Cc1cc(C)c(C2=NON3N(C(=O)c4cccs4)c4ccccc4N23)c(C)c1,-0.7,-1.6
CCS(=O)(=O)c1nc(S(=O)(=O)c2ccc(Cl)cc2)c(NCc2ccc(OC)cc2)s1,-0.5,-1.1
CC(=O)O[C@H]1C[C@@H](OC(C)=O)C(C)(C)C2C[C@@H](O)[C@]3(C)C(CC[C@@]4(C)[C@H](c5ccoc5)OC(=O)C5OC543)[C@]21C (some centres undefined),-0.8,-0.6
COC1(C(=O)NN)COc2ccccc2O1 (centres undefined),0.0,9.1
Cc1noc(C)c1S(=O)(=O)N(C)C[C@@H]1Oc2c(NC(=O)C3CC3)cccc2C(=O)N([C@H](C)CO)C[C@@H]1C,x,-3.8
Cn1c(C(=O)N2CCCC2)cc2c(=O)n3ccccc3nc21,-0.6,19
C[C@H]1CN([C@@H](C)CO)C(=O)c2cc(NC(=O)Cc3ccccc3)ccc2O[C@@H]1CN(C)CC1CC1,0.2,3.2
C[C@@H](NC(=O)/C(C#N)=C/c1ccc(O)c(O)c1)c1ccccc1,-0.3,-1.3
CC1CCC2(C)C(CC(O)C(O)C23CO3)C1(C)CCC1=CC(=O)OC1O (centres undefined),0.3,-7.4
O=C(NCc1ccccc1)c1ccc2c(c1)sc1nc(-c3ccccc3)cn12,-1.0,0.0
C[C@@H]1CN([C@H](C)CO)C(=O)c2cccc(NS(=O)(=O)c3cccs3)c2O[C@H]1CN(C)CC1CC1,x,2.2
Cn1c(=O)c(C(N)=S)cn(-c2ccccc2)c1=O,-0.6,2.3
CNC(=O)c1oc2ccc3c(c2c1C)C(=O)CC1(CCCCC1)O3,-0.3,-0.9
O=C(O)C1CCCCC1C(=O)N1CCN(C(c2ccccc2)c2ccccc2)CC1 (centres undefined),x,-7.8
C[C@H]1C(=O)N2c3ccccc3[C@@]3(O)C[C@@H]4C(=O)N[C@@](C)(c5nc6ccccc6c(=O)n54)N1[C@@H]23,0.3,-6.6
COc1ccc(NC(=O)N(C)C[C@H]2Oc3c(NC(=O)c4ccncc4)cccc3C(=O)N([C@@H](C)CO)C[C@@H]2C)cc1,x,-4.3
CCCCc1c(C)nc(-c2ccc(Cl)cc2)[nH]c1=O,-0.2,4.2
